Cruzain inh noDet – qHTS Assay for Promiscuous and Specific Inhibitors of Cruzain (without detergent); Cruzipain (Trypanosoma cruzi), P25779; purified cruzain, Z-FR-AMC fluorescence, no detergent; Potency, µM, without a hit: max response, negative = inhibition, usual class: inhibitors; 2.3% of 200,000 active;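 note: plate controls were enzyme without inhibitor for no effect and buffer without enzyme for full effect; nearly all actives have a fitted effect of over 40% in size; top concentration of the series not given in the record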
Target sequence (P25779 123-467 limits assumed): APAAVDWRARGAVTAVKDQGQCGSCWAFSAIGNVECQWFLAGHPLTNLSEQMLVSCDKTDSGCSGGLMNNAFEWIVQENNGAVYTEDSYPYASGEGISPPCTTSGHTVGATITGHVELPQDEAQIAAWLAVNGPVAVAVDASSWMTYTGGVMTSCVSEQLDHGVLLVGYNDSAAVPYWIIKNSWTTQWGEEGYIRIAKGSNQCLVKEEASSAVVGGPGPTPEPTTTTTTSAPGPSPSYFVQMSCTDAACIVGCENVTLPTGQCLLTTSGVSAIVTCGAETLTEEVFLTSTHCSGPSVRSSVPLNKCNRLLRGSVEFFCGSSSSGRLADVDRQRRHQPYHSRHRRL
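Purified cruzain at 1.5 nM, pre-incubated 15 min with compound at room temperature in 100 mM sodium acetate pH 5.5, 5 mM DTT, 0.00005% Triton X-100. Reaction started with 2 uM Z-FR-AMC; AMC fluorescence increase over 60 s gives rate.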
LASV entry inh – qHTS for Inhibitors of binding or entry into cells for Lassa Virus; Lassa virus pseudotype entry inhibition, cell reporter; control for the full effect not named in the record; Potency, µM (highest dose often 37.9 µM), for inactives: at the top dose activity change, negative = inhibition, actives largely listed as inhibitors; 1.2% of 300,000 active; active means well fitted inhibition curve with a large enough effect; inconclusive means small, poorly fitted or top-dose-only effect, or effect the other way; inactive means flat fitted curve, though single readings scatter; tested in HEK293 cells; note: % is set by controls: 0 for no effect and ±100 for the full control effect; nearly all actives have a fitted effect of over 50% in size; luciferase read-out
Cruzain Triton – qHTS Assay for Promiscuous and Specific Inhibitors of Cruzain (with detergent); Potency, µM, for the others: max response, negative = inhibition, actives largely listed as inhibitors; 0.43% of 200,000 active; purified cruzain, Z-FR-AMC fluorescence, 0.01% Triton; AID 1478, 2009; Cruzipain (Trypanosoma cruzi), P25779;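 note: plate controls were neutral wells for no effect and buffer without enzyme for full effect; nearly all actives have a fitted effect of over 40% in size; top concentration of the series not given in the record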
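Z-FR-AMC hydrolysis (2 uM substrate) by cruzain (1.5 nM) monitored kinetically at ex 360/em 450 nm after 15 min room-temperature compound exposure; 0.01% Triton X-100, pH 5.5, 5 mM DTT.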
NS1 function inh – qHTS Assay for Inhibitors of Influenza NS1 Protein Function. S. cerevisiae slowed by influenza A NS1, growth recovery by OD600. Potency, µM (top dose mostly 46.1 µM), inactives show top-dose activity, positive = more growth. 0.4% of 270,000 active. AID 2326, 2010; active means well fitted rising curve with a large enough effect; inconclusive means small, poorly fitted or top-dose-only effect; inactive means no such curve, though single readings can be large or run the other way; note: nearly all actives have a fitted effect of over 50% in size
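S. cerevisiae expressing influenza A NS1, grown in glucose, washed, then diluted 1:100 into pH 6.0 -URA galactose medium with 23 nl compound. Growth recovery read as OD600; NS1-free strain serves as control.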
SARS PLpro yeast – qHTS of Yeast-based Assay for SARS-CoV PLP | S. cerevisiae expressing SARS-CoV PLpro, growth rescue; control for the full effect not named in the record | Potency, µM (doses to about 32.9 µM), inactives show top-dose activity, positive = growth rescue | 0.19% of 330,000 active; active means well fitted rising curve with a large enough effect; inconclusive means small, poorly fitted or top-dose-only effect; inactive means no such curve, though single readings can be large or run the other way; note: 0% is about no effect; nearly all actives have a fitted effect of over 55% in size; growth read by luminescence after 48 h
Marburg entry inh – qHTS for inhibitors of binding or entry into cells for Marburg Virus; AID 540276, 2011; Potency, µM (series often up to 37.8 µM), inactives show at the highest dose activity change, negative = inhibition, actives largely listed as inhibitors; Marburg virus pseudotyped entry inhibition, cell reporter; control for the full effect not named in the record; about a third of the inactives were read at about 46 µM; 1.8% of 300,000 active; active = well fitted inhibition curve with a large enough effect; inconclusive = small, poorly fitted or top-dose-only effect, or effect the other way; inactive = flat fitted curve, though single readings scatter; tested in HEK293 cells; about a fifth of its hits are not listed in these tables; note: % is set by controls: 0 for no effect and ±100 for the full control effect; luciferase read-out
StopGo reporter – High Throughput Screening for Foot and Mouth Disease Virus Antivirals. human cells with a luciferase reporter of 2A StopGo recoding; control for the full effect not named in the record. Potency, µM (series often up to 57.9 µM), for the others: top-dose signal change, negative = less light. 1.2% of 410,000 active. AID 1159524, 2015; active = well fitted falling curve with a large enough effect; inconclusive = small, poorly fitted or top-dose-only effect; inactive = no such curve, though single readings can be large or run the other way; tested in HEK293T cells; note: % is set by controls: 0 for no effect and ±100 for the full control effect; nearly all actives have a fitted effect of over 45% in size; luciferase light after 4 h
RE007 growth inh – qHTS Assay for Inhibitors of the HIV-1 protein Vpr; S. pombe RE007 Vpr strain, BacTiter-Glo ATP luminescence, 24 h; control for the full effect not named in the record; Potency, µM (series often up to 92.2 µM), inactives show at the top dose activity change, negative = less growth; 0.21% of 360,000 active; AID 651644, 2012; active = well fitted falling curve with a large enough effect; inconclusive = small, poorly fitted or top-dose-only effect; inactive = no such curve, though single readings can be large or run the other way;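 note: % is set by controls: 0 for no effect and ±100 for the full control effect; nearly all actives have a fitted effect of over 50% in size; the assay follows cell death caused by Vpr and the record does not say whether a fall means rescue or toxicity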
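Fission yeast strain RE007, carrying one chromosomally integrated HIV-1 vpr copy, was seeded at OD 0.01 in PMG+AL medium with 23 nL pinned compound. After 24 h at 30 °C and 99% humidity, viability was read by BacTiter-Glo luminescence.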
An asterisk follows results filed as active; u = inconclusive; x = no result given; [ ] = remark or other dose. Unless noted, calls come from the whole dose curve; as a rule, active = well fitted curve in the direction sought with a large enough effect; inconclusive = small, poorly fitted or top-dose-only effect, or another doubt; inactive = no such curve, though single readings can be large; an effect the other way counts as inactive or inconclusive. Potency is the fitted concentration of half-maximal effect.

Assay codes – A = Cruzain inh noDet; B = LASV entry inh; C = Cruzain Triton; D = NS1 function inh; E = SARS PLpro yeast; F = Marburg entry inh; G = StopGo reporter; H = RE007 growth inh
CSc1nc(N)nc(SC2C=CCCC2)c1C#N (stereo unspecified)
  A = -11%; B = 7%; C = -3.7%; D = 2%; E = 9%; F = -7%; G = x; H = -6%
O=C(N/N=C/c1c(F)cccc1Cl)C(=O)N1CCCCCC1
  A = x; B = u; C = x; D = -2%; E = -4%; F = 1%[46.1 µM]; G = 35%[activator]; H = 7%
Cc1csc(C(C#N)C(=O)c2ccncc2)n1 (stereo unspecified)
  A = -11%; B = -1%; C = -3.5%; D = -5%; E = -3%; F = 15%; G = 3%; H = 0%
Cc1ccccc1-c1ccc(C=Nc2c(C)n(C)n(-c3ccccc3)c2=O)o1
  A = -8%; B = 2%; C = -13%; D = -69%; E = 11%; F = -16%; G = 14%; H = -13%
COC(=O)c1ccc(-n2ccnc2)cc1
  A = x; B = 0%; C = x; D = x; E = -2%; F = -1%[46.1 µM]; G = -8%; H = 3%
C[C@H]1[C@H](OC(=O)CCC(=O)NCc2ccc(C(=O)O)cc2)O[C@@H]2O[C@@]3(C)CC[C@H]4[C@H](C)CC[C@@H]1C24OO3
  A = x; B = u; C = x; D = -95%; E = -6%; F = u; G = 15%; H = -15%
COc1ccc(C2CC(c3cccs3)=Nc3ccccc3S2)cc1OC (stereo unspecified)
  A = 13%; B = 14%; C = -4.0%; D = -12%; E = 14%; F = -1%; G = x; H = -12%
CC(=O)Nc1ccc(S(=O)(=O)Nc2nccc(C3Cc4ccccc4C(=O)O3)n2)cc1 (stereo unspecified)
  A = 5%; B = 9%; C = 2.6%; D = -5%; E = x; F = 2%; G = 7%; H = -1%
O=C(Nc1nc2ccsc2c(=O)s1)c1ccc(F)cc1
  A = x; B = -13%; C = x; D = -7%; E = -1%; F = u; G = -5%; H = -13%
CCOP(=O)(OCC)c1ccccc1OCP(C)(=O)COc1ccccc1P(=O)(OCC)OCC
  A = x; B = 21%[46.1 µM]; C = x; D = 0%; E = 1%; F = 11%[46.1 µM]; G = 3%; H = 4%
Cc1ccc(NC(=O)CCCN2C(=O)COc3ccc(C)cc32)c(C)c1
  A = 0%; B = 25%[46.1 µM]; C = -6.0%; D = x; E = x; F = 10%[46.1 µM]; G = -9%; H = x
CCOC(=O)c1ccc(NC(=O)c2cc3c(C)nn(-c4ccccc4Cl)c3s2)s1
  A = -1%; B = 10%; C = -1.8%; D = 13%; E = 1%; F = 3%; G = -13%; H = -7%
Cc1ccc(Nc2cc(-c3ccccc3)nc3ncnn23)cc1
  A = x; B = -20%; C = x; D = -7%; E = 0%; F = -20%; G = -25%; H = 17%
CC(=O)NC(CC(=O)O)c1ccc(F)cc1 (stereo unspecified)
  A = x; B = 0%; C = x; D = 5%; E = 1%; F = 16%[46.1 µM]; G = 3%; H = -11%
COc1ccc(C(=O)OCC(=O)Nc2nnc(-c3ccccc3)o2)cc1
  A = x; B = -23%[46.1 µM]; C = x; D = -4%; E = 2%; F = -9%[46.1 µM]; G = 13%; H = 4%
c1csc(-c2noc(CN3CCc4sccc4C3)n2)c1
  A = x; B = x; C = x; D = -1%; E = 0%; F = x; G = 24%; H = 1%
COc1ccc(/C=N/NC(=O)c2cccc(Br)c2)cc1CSc1ccccn1
  A = u; B = -15%; C = -7.6%; D = -5%; E = 21%; F = u; G = 19%; H = -11%
CC(C)c1nc(SCC(=O)NCc2ccccc2)n[nH]1
  A = -1%; B = -1%; C = 12%; D = 4%; E = 2%; F = 1%; G = -14%; H = 28%
CCOC(=O)N1CCC(n2c(SCC(=O)N3CCCC3)nc3ccccc3c2=O)CC1
  A = -1%; B = u; C = 0.1%; D = 11%; E = 3%; F = -19%; G = 15%; H = 10%[3.69 µM]
COc1ccc(OC)c(CN2CCN(C(=O)[C@@H](NC(=O)c3cccc(C)c3)C(C)C)CC2)c1
  A = x; B = u; C = x; D = x; E = 2%; F = u; G = -30%; H = 6%
Cc1cc(OCCN2CCCCC2)nc2ccccc12
  A = 9%; B = -18%; C = 4.5%; D = -3%; E = 0%; F = u; G = -27%; H = -9%
Cc1cc(Cl)ccc1Oc1ncnc2oc(-c3ccccc3)cc12
  A = -18%; B = 8%; C = -23%; D = 5%; E = 0%; F = 3%[46.1 µM]; G = 0%; H = 9%
C=CCc1ccccc1OCCSc1nc(-c2cccs2)nc2cc(=O)[nH]n12
  A = 7.9µM*; B = 10%[46.1 µM]; C = -0.1%; D = x; E = x; F = x; G = -28%; H = x
COc1ccc(CN=C2NC(=O)CC(C(=O)Nc3cc(C)cc(C)c3)S2)cc1 (stereo unspecified)
  A = 2%; B = -2%; C = -4.7%; D = -5%; E = 18%; F = -3%; G = -25%; H = -16%
Cc1nn(-c2ccccc2)c(C)c1NC(=O)COC(=O)CC(C)c1ccccc1 (stereo unspecified)
  A = x; B = 6%; C = x; D = x; E = -1%; F = 27%[46.1 µM]; G = -11%; H = -21%
COc1ccc2cc3c(N)nn(C(=O)c4ccc(F)cc4Cl)c3nc2c1
  A = 0%; B = -3%[46.1 µM]; C = -8.2%; D = x; E = x; F = -7%[46.1 µM]; G = -14%; H = x
CCn1cc(C(=O)N2CCOCC2)c(=O)c2cc(S(=O)(=O)N(C)C3CCCCC3)ccc21
  A = -3%; B = x; C = -5.7%; D = -13%; E = -9%; F = x; G = -13%; H = 0%
CC(=O)Nc1ccc(S(=O)(=O)Nc2cc(-c3ccccc3)nn2C)cc1
  A = x; B = 1%; C = x; D = 0%; E = 0%; F = u; G = -1%; H = -12%
COc1ccccc1N1CCN(Cc2cc(=O)n3ccsc3n2)CC1
  A = -21%; B = 3%; C = -0.3%; D = 9%; E = -7%; F = 13%; G = 3%; H = -4%
Cc1cc2n(n1)CCC(=O)N2Cc1ccc(C(=O)Nc2ccc(F)cc2F)cc1
  A = 3%; B = -20%[46.1 µM]; C = 1.1%; D = x; E = x; F = x; G = -12%; H = x
N#C/C(=C/c1ccc(N2CCOCC2)o1)C(=O)Nc1ccccc1
  A = x; B = -18%; C = x; D = -7%; E = -1%; F = 8%[46.1 µM]; G = -3%; H = 2%
COc1ccc(N2CCN(c3ccc4nnc(CCC(=O)Nc5ccc(C)cc5)n4n3)CC2)cc1
  A = x; B = x; C = x; D = 19%; E = 5%; F = x; G = u; H = 5%
Cc1cc(N2CCOCC2)nc2ccc(NC(=S)NCCN(C)C)cc12
  A = x; B = -4%; C = x; D = 0%; E = 0%; F = u; G = 10%; H = -29%
CC(Sc1nnc(N)s1)C(=O)NC1CCCCC1C (stereo unspecified)
  A = x; B = 10%; C = x; D = x; E = 6%; F = 7%; G = -12%; H = -11%
NC(=O)COC(=O)c1cccc2c1-c1ccccc1C2=O
  A = x; B = 6%[46.1 µM]; C = x; D = -7%; E = 0%; F = u; G = -11%; H = 2%
Cc1nc2cc(-c3cccc(F)c3)nn2c(C)c1CCC(=O)Nc1ccccc1C(N)=O
  A = -7%; B = u; C = 1.0%; D = x; E = x; F = u; G = u; H = x
O=C(NC(=S)Nc1cc([N+](=O)[O-])ccc1O)c1cccnc1
  A = x; B = x; C = x; D = 0%; E = -5%; F = x; G = 43%[activator]; H = -11%
CCOc1ccc(NC(=O)C2C(C(=O)O)C3(Cl)C(Cl)=C(Cl)C2(Cl)C3(Cl)Cl)cc1 (stereo unspecified)
  A = x; B = 1%[46.1 µM]; C = x; D = -8%; E = -1%; F = 1%[46.1 µM]; G = -15%; H = -1%
COc1ccc(NC(=O)N2CCN(C(=O)C(Cc3ccc(F)cc3)NC(C)=O)CC2)cc1 (stereo unspecified)
  A = x; B = u; C = x; D = 0%; E = -1%; F = 6%; G = 40%[activator]; H = 20%
Cc1csc(NC(=O)CSc2nc(=O)n(CCCN(C)C)c3c2CCC3)n1
  A = x; B = 5%; C = x; D = x; E = 18%; F = -4%; G = -7%; H = -5%

Exported tab-delimited: entries from further up.
smiles	Cruzain inh noDet	LASV entry inh	Cruzain Triton	NS1 function inh	SARS PLpro yeast	Marburg entry inh	StopGo reporter	RE007 growth inh
N#C/C(=C/c1ccc(N2CCOCC2)o1)C(=O)Nc1ccccc1	x	-18%	x	-7%	-1%	8%[46.1 µM]	-3%	2%
COc1ccc(N2CCN(c3ccc4nnc(CCC(=O)Nc5ccc(C)cc5)n4n3)CC2)cc1	x	x	x	19%	5%	x	u	5%

More records.
Assay codes – A = Cruzain inh noDet; B = LASV entry inh; C = Cruzain Triton; D = NS1 function inh; E = SARS PLpro yeast; F = Marburg entry inh; G = StopGo reporter; H = RE007 growth inh
CCN1C(=O)/C(=C/N(C(C)=O)c2ccccc2)N(c2ccccc2)C1=S
  A = -6%; B = -24%; C = -9.2%; D = -6%; E = 3%; F = -1%[46.1 µM]; G = 32µM*; H = -5%
CCN(CCCNC(=O)C1CCN(S(=O)(=O)N2CCC3(CC2)OCCO3)CC1)c1ccccc1
  A = 0%; B = 10%; C = -0.1%; D = -12%; E = -4%; F = 12%; G = x; H = -18%
COc1ccc(S(=O)(=O)N2CCN(CC(=O)N3c4ccccc4CC3C)CC2)cc1OC (stereo unspecified)
  A = x; B = u; C = x; D = x; E = 3%; F = 1%; G = -29%; H = 1%
Cc1ccc(-n2c(=O)c3c(cnn3C)n(CC(=O)Nc3c(C)cccc3C)c2=O)cc1
  A = 22%; B = 5%[46.1 µM]; C = 0.6%; D = x; E = x; F = -21%[46.1 µM]; G = -7%; H = x
Cc1onc(-c2ccccc2Cl)c1C(=O)NNC(=O)c1nn(C)cc1Cl
  A = x; B = 12%; C = x; D = 3%; E = 0%; F = 10%[46.1 µM]; G = 0%; H = -2%
COc1ccccc1N(CC(O)COc1ccc(C)cc1)S(=O)(=O)c1ccccc1 (stereo unspecified)
  A = 13%; B = u; C = -8.1%; D = -7%; E = -15%; F = u; G = -18%; H = 28%
Cc1cc2nnc(SCc3ccccc3)n2c(N)n1
  A = -5%; B = 8%; C = -3.3%; D = 1%; E = -8%; F = 0%; G = 14%; H = 10%
